Screening results as filed in PubChem.
Menin-MLL FL inh: menin-MLL binding inhibition, fluorescein peptide; Fluorescence polarization, fluorescein-MLL peptide displacement from menin; 290,000 tested, under 10 active; AID 1766; FP activity change, % at 61.4 µM; inconclusive = falling polarisation curve, or a change in total fluorescence; inactive = total fluorescence flat and polarisation flat or rising; no compound was filed as active; the % refers to the polarisation; negative = inhibition;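 further: % of control where 0% means no effect; inhibitors lower the polarisation; unlabelled MLL peptide was the positive control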
ClpP mod: qHTS Assay for Activators of ClpP. actives 1.9% (n = 340,000). Potency, µM (series often up to 57.5 µM), for the others: top-dose activity change, negative = active. purified B. subtilis ClpP, FRET peptide cleavage, 20 min. ATP-dependent Clp protease proteolytic subunit (Bacillus subtilis (strain 168)), P80244. AID 651965, 2013; active = well fitted falling curve with a large enough effect; inconclusive = small, poorly fitted or top-dose-only effect; inactive = no such curve, though single readings can be large or run the other way; further: potency means the concentration at half of the fitted maximal effect; the source files actives as falling curves though it sought activators and does not explain the sign; nearly all actives have a fitted effect of over 65% in size; many hits overshoot -100%
Target sequence (P80244 whole entry, looked up): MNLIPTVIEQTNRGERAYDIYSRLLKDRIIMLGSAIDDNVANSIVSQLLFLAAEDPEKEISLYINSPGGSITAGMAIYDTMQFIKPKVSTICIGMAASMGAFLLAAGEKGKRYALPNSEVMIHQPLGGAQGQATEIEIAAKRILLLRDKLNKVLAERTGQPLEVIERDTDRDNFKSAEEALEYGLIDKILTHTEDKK
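Purified B. subtilis ClpP, 10 microg/mL final in Tris/HCl pH8 with KCl, BSA, glycerol and Tween-20, cleaved an Abz/nitrotyrosine-quenched decapeptide. Fluorescence (ex 320, em 430) was read at 0 and 20 min at room temperature. Delta was normalized to 5.8 microM ADEP and DMSO/no-enzyme controls.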
gsp agonist: activates gsp, the McCune-Albright syndrome mutation | Potency, µM (doses to about 76.9 µM), for the others: at the highest dose activation (cAMP increase), actives largely listed as activators | gsp mutant cells, cAMP HTRF, 30 min; control for the full effect not named in the record | actives 0.13% (n = 340,000) | AID 624287; active = well fitted activation curve with a large enough effect; inconclusive = small, poorly fitted or top-dose-only effect, or another doubt; inactive = no such curve, though single readings can be large or run the other way; cell line not stated here;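 further: phosphodiesterase inhibitor Ro 20-1724 added with compounds to block cAMP breakdown; potency means the concentration at half of the fitted maximal effect; nearly all actives have a fitted effect of over 60% in size; about a fifth of the inactives were tested at one dose only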
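Cells stably selected in G418 were plated at 2000/well, grown 16-24 hr, then given compounds in DMSO with the PDE inhibitor […] (300 uM solution added) for 30 min at 37C; cAMP was read by HTRF.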
TRPML1 ag: human mucolipin-1 channel agonism; Q9GZU1; actives 0.12% (n = 410,000); AID 624414; TRPML1-expressing cells, Ca2+ dye fluorescence, FDSS; host cell line not named in the record; reference of the full effect not given here; activation, % (concentration not given with the values); in the data active = activation above about 50%; inconclusive = about 30% to 50%; inactive = below about 30%; further: 0% is about no effect; the text of the record puts the active cut at 80%
Target sequence (Q9GZU1 whole entry, looked up): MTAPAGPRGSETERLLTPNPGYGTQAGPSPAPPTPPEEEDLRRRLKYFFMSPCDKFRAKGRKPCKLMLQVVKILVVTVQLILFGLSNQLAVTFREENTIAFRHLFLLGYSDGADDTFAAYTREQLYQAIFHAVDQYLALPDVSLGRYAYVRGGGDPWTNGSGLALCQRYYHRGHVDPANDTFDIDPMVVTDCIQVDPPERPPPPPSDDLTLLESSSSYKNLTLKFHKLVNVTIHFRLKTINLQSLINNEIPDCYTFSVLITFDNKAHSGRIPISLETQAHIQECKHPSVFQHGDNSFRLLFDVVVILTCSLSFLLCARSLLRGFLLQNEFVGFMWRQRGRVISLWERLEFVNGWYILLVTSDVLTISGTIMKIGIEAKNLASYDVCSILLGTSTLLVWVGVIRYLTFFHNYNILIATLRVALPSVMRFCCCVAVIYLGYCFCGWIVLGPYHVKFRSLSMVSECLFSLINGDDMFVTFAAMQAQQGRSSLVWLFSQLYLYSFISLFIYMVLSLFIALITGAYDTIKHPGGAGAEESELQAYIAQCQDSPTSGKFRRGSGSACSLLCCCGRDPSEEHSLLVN
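Tetracycline-induced TRPML1-DL cells are seeded and incubated overnight before loading with a no-wash Ca2+ dye and quencher. Agonist activity is taken from the 110 s fluorescence read following compound pin-transfer on an FDSS, before EC80 54-4 challenge.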
gsp antagonist: antagonists of gsp mutant (McCune-Albright syndrome). gsp-mutant cells, cAMP HTRF, 30 min; control for the full effect not named in the record. Potency, µM (doses to about 76.9 µM), inactives show top-dose activity change, negative = inhibition, hits mostly inhibitors. actives 0.4% (n = 340,000); active = falling curve of any shape with a large fitted effect; inconclusive = falling curve, mostly with a smaller effect; inactive = flat or rising curve; cell line not stated here;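 further: intracellular cAMP measured with PDE inhibitor Ro 20-1724 present during compound exposure; potency means the concentration at half of the fitted maximal effect; on the % scale 0 is the no-effect control and ±100 the full control effect; nearly all actives have a fitted effect of over 65% in size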
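Cells in G418 medium, seeded 16-24 h, 37C; buffer exchange to DPBS + 1 mM CaCl2, 0.5 mM MgCl2, 0.05% BSA; cpds in DMSO + […] (300 uM stock), 30 min 37C; HTRF cAMP detection.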
TRPML1 inh: inhibitors of human TRPML1 channel. Q9GZU1. TRPML1-inducible cells, Ca2+ dye fluorescence, FDSS; stronger effect = lower value; inhibition of EC80 agonist-evoked calcium signal. activity change, negative = inhibition, % (test concentration not listed). actives 0.02% (n = 390,000); in the data active means activity change below about -50%; inconclusive means about -30% to -50%; inactive means above about -30%;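 further: stimulus is agonist 54-4 at its EC80 concentration; on the % scale 0 is the no-effect control and ±100 the full control effect; compound concentration not given in the record; the text of the record puts the active cut at -80%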
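TRPML1-DL cells, Tet-induced overnight (~16 h, 37 °C) at 1,500 cells/well, were loaded with Ca8 no-wash dye plus quencher for 45-90 min at room temperature. Compounds were pinned during FDSS kinetic reading; agonist 54-4 at EC80 (4 uM final) then added.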
Numbers without * were called inactive; ? = inconclusive; / = not tested or not shown; & = joins results of further samples; [ ] = dose if it differs, or a comment.

SMILES	Menin-MLL FL inh	ClpP mod	gsp agonist	TRPML1 ag	gsp antagonist	TRPML1 inh
OCCC1CN(Cc2ccc(Oc3ncccn3)cc2)CCN1Cc1ccc(F)c(F)c1 (stereo unspecified)	1.8	0.1%	4.6%	0.3	8.8%	-9.4
OCCC1CCCCN1CC(O)COCc1ccc(Cl)cc1 (stereo unspecified)	-2.1	/	18.2%	-0.4	6.1%	-19.6
CCOc1cc(C(=O)OC(C)C(=O)Nc2ncc(Cl)cc2Cl)ccc1OCC(=O)N1CCOCC1 (stereo unspecified)	3.0	-6.4%	-9.6%	-0.4	50.1µM*	-3.4
C/C(=N/NC(=O)Cc1cccc2ccccc12)c1cccs1	-3.0	0.5%	17.7%	-0.5	?	3.9
COC(=O)c1c(SCC(=O)NC2CCCCC2)[nH]c2ccccc2c1=O	/	-6.9%	?	1.4	-2.0%	2.8
Cc1ccc(-c2cc(C(=O)NCc3ccccc3)c3c(-c4ccc(C)cc4)[nH]nc3n2)cc1	/	0.7%	/	-0.5	/	10.6
c1ccc(-c2ccccc2OCCN2CCOCC2)cc1	5.1	-1.6%	14.7%[15.4 µM]	-0.2	5.7%	0.4
Cc1cc(SCC(=O)NCCN2C(=O)CSC2=O)nc2ccccc12	9.5	-2.8%	13.1%	1.1	12.7%	28.9
O=C(OCC(=O)N(Cc1ccccc1)Cc1ccccc1)c1cccc(O)c1	/	-0.6%	-11.1%	1.6	-2.5%	0.2
O=C(NC1CCN(Cc2ccccc2)CC1)c1cncc(Br)c1	1.4	0.3%	47.0%	1.1	0.4%	-27.5
CCOC(=O)CN(C)Cc1cn(C)nc1-c1ccc(Oc2ccccc2)cc1	3.5	/	-0.2%	0.9	-12.3%	15.2
COc1ccc(-c2nnc(NC(=O)CS(=O)(=O)c3ccc(Cl)cc3)o2)c(OC)c1	/	-3.6%	-42.2%[inhibitor]	-0.8	-19.6%	-3.5
CCN(CC)CCN1C(=O)C(=O)/C(=C(/O)c2ccc(S(=O)(=O)N3CCOCC3)cc2)C1c1ccc(C(C)C)cc1 (stereo unspecified)	1.4	/	-11.1%[15.4 µM]	-0.2	-1.0%	5.1
O=C(CSC1=NCCS1)N1CCN(c2ccccc2)CC1	-4.4	-2.1%	6.6%	-0.5	-1.1%	-5.7
CC(=O)N1CC(C)Sc2ccc(S(=O)(=O)NC3CCCCC3)cc21 (stereo unspecified)	-0.6	-1.4%	?	0.0	-15.8%	-1.5
COCCn1c(SCC(=O)Nc2ccc3c(c2)OCCO3)nnc1-c1c[nH]c2ccccc12	-0.2	-0.2%	?	0.4	1.8%	6.4
CCNC(=O)Cn1c(=O)c(=O)n(Cc2ccccc2)c2ccc(Cl)cc21	2.0	-11.2%	-10.4%	-0.7	9.0%	15.0
Oc1ccccc1Nc1nc(NCc2ccco2)c2ccccc2n1	-0.6	1.9%	5.7%	-0.3	-16.6%	-18.4
Cc1ccccc1OS(=O)(=O)c1cccc([N+](=O)[O-])c1	/	2.3%	?	1.7	/	40.1
CCOc1cc(CN2CCN(S(=O)(=O)Cc3ccccc3)CC2)ccc1OC	-1.3	/	-3.5%	0.0	-2.9%	6.2
C=Cc1ccc(Cn2c(=O)n(-c3ccc(C)cc3)c(=O)c3c2c2cc(OC)ccc2n3C)cc1	/	?	/	-0.1	/	10.1
COc1cc(CNc2ccc3[nH]c(=O)[nH]c3c2)ccc1OCc1ccccc1F	2.0	-6.6%	-30.7%[inhibitor]	0.9&0.3	-1.8%	-3.7&-14.6
Cc1nc(Nc2ccccc2)sc1C	3.6	-1.8%	27.8%	1.5	3.5%	58.3
CC(=O)Nc1ccc(NC(=O)C2CCN(c3c(NC(C)=O)c(C)nn3-c3ccccc3)CC2)cc1	/	0.6%	/	-0.7	/	0.9
COc1ccc(N2CCN(C(=O)CN(c3ccc(Br)cc3)S(C)(=O)=O)CC2)cc1	1.3	0.8%	5.6%	0.2	-14.5%	2.9
O=C(CSC1=NCCN1)C1COc2ccccc2O1 (stereo unspecified)	0.7	-1.3%	-49.6%[inhibitor]	1.3	1.8%	2.5
CC(=O)c1cccc(N(C(=O)CS(=O)CC(=O)Nc2ccc(F)cc2)C(C(=O)NC2CCCCC2)c2ccc(C)o2)c1 (stereo unspecified)	11.5	-10.9%	-17.7%	-0.3	-3.4%	-6.8
COc1ccc(CCNC(=O)Cn2cnc3ccccc3c2=O)cc1OC	5.8	-1.4%	-1.0%	0.1	6.9%	5.2
O=C(COC(=O)CCC(=O)c1ccc(F)cc1)Nc1ccc(N2CCOCC2)cc1	6.6	-0.3%	9.7%	-0.7	7.5%	15.0
COC(=O)N1CC=CC1(C)C(=O)NCc1cc(F)cc(C(F)(F)F)c1 (stereo unspecified)	-0.1&-1.7	1.2%	-25.7%	-0.6	0.6%	-0.7
O=C(Nc1cccc2ccccc12)c1ccc([N+](=O)[O-])s1	-1.5	0.7%	-25.6%	1.9	0.9%	-15.0
O=C(NC1CCCCC1)c1ccc(CS(=O)Cc2ccc(Cl)cc2)o1 (stereo unspecified)	/	0.2%	-23.9%	-1.0	-11.6%	-10.2
CC(C)OC(=O)C1OC1(C)c1ccccc1 (stereo unspecified)	/	0.8%	2.4%[15.4 µM]	0.4	7.6%	-0.7
COc1ccc(OC)c(Nc2ncnc3ccccc23)c1	4.7	-0.1%	-9.3%	-0.1	-2.8%	-3.0
COc1ccc(C(=O)OCC(=O)Nc2ccc(F)cc2F)cc1OC	0.6	-1.2%	17.3%	0.3	-4.5%	7.7
Cc1c(-n2c(-c3ccccc3Cl)n[nH]c2=S)c(=O)n(-c2ccccc2)n1C	2.8	-0.6%	-40.8%[inhibitor]	-0.2	8.8%	20.1
Cc1ccc(C(=O)N2CCC(C)CC2)cc1NC(=O)c1nsc2ccccc12	/	-0.9%	/	2.0	/	-10.9
COc1ccc(C(=O)NCC(=O)OCC(=O)c2ccc3c(c2)OCCO3)cc1	-1.7	-3.5%	-66.2%[inhibitor]	0.7	-3.0%	-2.0
O=C(COC(=O)C12CC3CC(CC(Br)(C3)C1)C2)N1CCOCC1	1.4	/	-20.0%[15.4 µM]	1.1	5.9%	22.3
Cn1c(CCNS(=O)(=O)c2ccccc2)nc2cc([N+](=O)[O-])ccc21	-1.9	-0.2%	-1.9%	-0.7	-2.1%	-15.3
CCCC(C)C(=O)Nc1nnc(CCc2ccccc2)s1 (stereo unspecified)	-1.0	/	9.2%	8.0	8.7%	20.1
O=C(N/C(=C\c1ccc(Cl)cc1)C(=O)N1CCOCC1)c1ccc([N+](=O)[O-])cc1	-1.3	/	5.4%[15.4 µM]	-0.7	/	17.6
O=C(CCSCc1cccc(F)c1)NCCc1ccccc1	-7.3	-2.1%	19.5%	1.4&1.3	-0.1%	-15.4&-1.5
COC(=O)[C@@]12CCCCN1[C@H](c1ccc(-c3ccccc3)cc1)[C@@H]1C(=O)N(C)C(=O)[C@@H]12	/	-4.3%	/	0.2	2.7%	107.5
CCCC1=Nc2cc(C(=O)NCCN3CCOCC3)ccc2Sc2ccccc21	0.9	0.9%	19.3%	0.5	-10.7%	-3.6
Cc1cc(C)n(-c2nc3ccccc3c(=O)n2OCc2ccc(Cl)cc2)n1	0.1	-0.7%	2.4%	1.6	-9.4%	-1.1
CCOc1ccc(S(=O)(=O)N2CCNC(=O)C2)cc1	/	-2.8%	14.1%	2.4	3.9%	4.7
O=C(c1ccc(Cl)cc1)N1CCCC(c2ccccc2)=N1	3.9	0.6%	-35.0%[inhibitor]	0.0	-15.1%	-4.5
CCO[C@H]1OC(C(=O)O)=C[C@@H](c2ccccc2)[C@@H]1CCCO	/	0.9%	/	-0.6	1.0%	0.1
CCOC(=O)c1c(NC(=O)CSc2nc3ccccc3c(=O)n2-c2ccccc2)sc(C(C)=O)c1C	1.4	-1.1%	-1.0%	0.8	-10.7%	-11.3

Further compounds.
SMILES	Menin-MLL FL inh	ClpP mod	gsp agonist	TRPML1 ag	gsp antagonist	TRPML1 inh
CCCCOc1ccc(N2C(N)=NC(N)=NC23CCCCC3)cc1	-2.6	-0.3%	-46.8%[inhibitor]	/	3.6%	/
CC(=O)Nc1coc2ccc(Br)cc12	0.0	-1.6%	2.0%	2.2	2.9%	2.2
COc1ccccc1OCCn1c(NC(=O)c2ccc(Cl)cc2)nc2ccccc21	/	?	/	1.1	/	38.4
COC(=O)c1ccc(Cn2cc(C(F)(F)F)ccc2=O)cc1	-1.4	/	-14.2%[15.4 µM]	2.2	5.4%	1.7
CCOC(=O)c1cnc2nc(SC)nn2c1N	-3.8	/	19.6%[15.4 µM]	0.9	-6.8%	24.5
Cc1ccc(NC(=O)Cn2c(O)c(N=NC(N)=O)c3ccccc32)cc1	5.0	/	-3.4%[15.4 µM]	-0.6	-15.5%	2.4
CCCOc1ccc(NC(=O)C(=O)NCCCn2ccnc2)cc1	1.7	1.1%	0.0%	0.4	7.8%	-27.8
O=C(NCCc1ccc(C(F)(F)F)cc1)C1CC(=O)N(Cc2ccccc2)C1 (stereo unspecified)	/	-3.9%	-10.8%	-0.5	-2.9%	-3.6
CCc1ccc(S(=O)(=O)NCCc2csc3nc(-c4ccccc4)nn23)s1	/	-2.3%	/	5.0	/	13.7
CCCNC(=O)CN1C(=O)CSc2ccc(S(=O)(=O)N3CCC(C)CC3)cc21	/	0.1%	/	-0.5	/	7.1
O=C(CN1C(=O)NC2(CCCC2)C1=O)NCc1ccccc1	/	1.8%	?	-0.7	2.7%	0.9
CCOc1ccccc1C(=O)NC(C(=O)N(C)Cc1ccc2c(c1)OCO2)C(C)C (stereo unspecified)	/	-20.4%	-0.9%	1.8	?	27.5
CCOC(=O)c1c[nH]c(=O)c(Br)c1O	0.8	1.2%	-0.7%	0.0	6.4%	17.5
COc1ccc2oc(C(=O)OCC(=O)N3CCN(c4ccccc4)CC3)c(C)c2c1	/	-1.0%	-13.7%[15.4 µM]	0.9	-9.2%	16.3
CC1CCCCN1C(=O)CSc1nnc(-c2ccco2)n1C (stereo unspecified)	/	/	5.9%[15.4 µM]	-0.3	8.2%	-3.7
CSc1ccc(CC(=O)N2CCC(n3nccc3NC(=O)C3CC3)CC2)cc1	4.5	-0.9%	?	0.2	-10.6%	3.0
O=C(CCNc1cccc(C(F)(F)F)c1)c1ccco1	26.7	1.2%	-25.4%	1.4	1.4%	29.5
CN1C(=O)N(CC(=O)N2CCN(S(=O)(=O)Cc3ccccc3)CC2)C(=O)C12CCCCC2	/	?	-42.0%	0.4	1.3%	14.6
O=C(CSc1nncn1-c1ccccc1)NC1CCCCC1	-5.5	0.3%	-9.3%	0.2	5.4%	-1.8
O=C(c1ccco1)N1CCN(C(=O)C2CC(c3ccc(F)cc3)=NO2)CC1 (stereo unspecified)	0.8	-2.7%	-13.2%	0.0	-6.7%	4.9

This is a random part of the collection; overall some 2.1% were active at least once.
